gsp agonist – activates gsp, the McCune-Albright syndrome mutation | gsp mutant cells, cAMP HTRF, 30 min; control for the full effect not named in the record | Potency, µM (titrated, usually from 76.9 µM), for inactives: top-dose activation (cAMP increase), most hits filed as activators | 340,000 tested, 0.13% active | AID 624287; active = well fitted activation curve with a large enough effect; inconclusive = small, poorly fitted or top-dose-only effect, or another doubt; inactive = no such curve, though single readings can be large or run the other way; cell line not stated here;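 also: phosphodiesterase inhibitor Ro 20-1724 added with compounds to block cAMP breakdown; potency is read from the fitted curve at half-maximal effect; nearly all actives have a fitted effect of over 60% in size; about a fifth of the inactives were tested at one dose only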
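Cells in DMEM/10% FBS with G418 were pretreated with compounds in DMSO plus […] (300 uM stock) for 30 min at 37C. cAMP was measured by HTRF (cAMP-d2 plus anti-cAMP antibody-K) after 30 min at room temperature.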
gsp antagonist – gsp mutant antagonism | gsp-mutant cells, cAMP HTRF, 30 min; control for the full effect not named in the record | AID 624288 | Potency, µM (doses to about 76.9 µM), for the others: at the highest dose activity change, negative = inhibition, hits mostly inhibitors | 340,000 tested, 0.4% active; active = falling curve of any shape with a large fitted effect; inconclusive = falling curve, mostly with a smaller effect; inactive = flat or rising curve; cell line not stated here;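 also: intracellular cAMP measured with PDE inhibitor Ro 20-1724 present during compound exposure; potency is read from the fitted curve at half-maximal effect; % is scaled to controls: 0 for no effect and ±100 for the full control effect; nearly all actives have a fitted effect of over 65% in size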
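Cells, 2000/well, grown 16–24 h in DMEM 10% FBS with 0.5 mg/ml G418, then compounds plus […] (300 uM addition stock), 30 min at 37C. cAMP read by HTRF (cAMP-d2 and anti-cAMP antibody-K in lysis buffer) after 30 min RT.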
D2 potentiator – potentiates the human D2 dopamine receptor allosterically; DiscoveRx D2 beta-arrestin cells, luminescence, 90 min; 100% = 57 uM dopamine signal; potentiation, % (test concentration not listed); 360,000 tested, 0.23% active; AID 624464; active = potentiation of 50% or more; inconclusive = 30% to 50%; inactive = 30% or less;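 also: compound concentration not given in the record; tested on top of an EC20 dose of dopamine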
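D2 cells co-treated with compound plus 50 nM dopamine (EC20) for 90 min at 37 deg C to detect potentiation. Beta-arrestin recruitment was read as enzyme-fragment luminescence after 1 h at ambient temperature. Full response was set by 57 uM dopamine.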
D2 ag – activates the human D2 dopamine receptor; activation, % (concentration not given with the values); 360,000 tested, 0.084% active; AID 624465; DiscoveRx PathHunter D2 beta-arrestin, luminescence, 90 min; 100% = 57 uM dopamine signal; P14416; in the data active = activation above about 40%; inconclusive = about 15% to 40%; inactive = below about 15%; also: compound concentration not given in the record; the text of the record calls up to 30% inactive
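DiscoveRx PathHunter D2 beta-arrestin cells (2,100/well) attached overnight, then compound-stimulated 90 min at 37 C in HBSS/10 mM HEPES/0.1% Tween-20 buffer; beta-galactosidase complementation read by luminescence after 1 h at ambient temperature. Dopamine 57 uM final (EC100) as control.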
CtBP-E1A inh – blocks the CtBP interaction with E1A; AID 651724; activity change, % (concentration not given with the values); 340,000 tested, 0.49% active; AlphaScreen GST-E1A/His-CtBP binding, 1536-well; stronger effect = lower value; control for the full effect not named in the record; in the data active means activity change below about -65%; inconclusive means about -30% to -65%; inactive means above about -30%; also: % is scaled to controls: 0 for no effect and ±100 for the full control effect
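Homogeneous bead-based format: GST-tagged E1A captured on glutathione donor beads, His-tagged CtBP on nickel acceptor beads; compounds precede bead addition by 2 h at 37 °C.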
Six1-Eya2 blk – blocks human Six1 binding to Eya2; AlphaScreen GST-Six1/His-Eya2 binding, biochemical; stronger effect = lower value; control for the full effect not named in the record; activity change, % (no concentration beside the values); 360,000 tested, 0.56% active; in the data active = activity change below about -65%; inconclusive = about -30% to -65%; inactive = above about -30%; also: % is scaled to controls: 0 for no effect and ±100 for the full control effect; compound concentration not given in the record
Target sequence (O00167 whole entry, looked up): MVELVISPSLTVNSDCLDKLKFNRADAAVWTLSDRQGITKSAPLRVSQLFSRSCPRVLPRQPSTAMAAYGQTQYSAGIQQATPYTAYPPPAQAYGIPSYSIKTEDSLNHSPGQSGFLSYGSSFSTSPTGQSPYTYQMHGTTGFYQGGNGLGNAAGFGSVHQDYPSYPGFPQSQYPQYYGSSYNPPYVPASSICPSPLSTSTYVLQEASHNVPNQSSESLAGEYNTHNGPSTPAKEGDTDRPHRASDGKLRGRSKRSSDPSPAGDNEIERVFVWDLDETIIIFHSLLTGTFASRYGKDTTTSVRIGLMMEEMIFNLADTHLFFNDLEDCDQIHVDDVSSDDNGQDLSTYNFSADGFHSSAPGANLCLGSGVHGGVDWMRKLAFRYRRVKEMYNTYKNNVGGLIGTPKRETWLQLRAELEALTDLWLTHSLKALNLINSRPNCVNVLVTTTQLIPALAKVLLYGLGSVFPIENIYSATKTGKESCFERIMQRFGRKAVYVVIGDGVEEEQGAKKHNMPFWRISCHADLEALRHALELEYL
Target sequence (Q15475 whole entry, looked up): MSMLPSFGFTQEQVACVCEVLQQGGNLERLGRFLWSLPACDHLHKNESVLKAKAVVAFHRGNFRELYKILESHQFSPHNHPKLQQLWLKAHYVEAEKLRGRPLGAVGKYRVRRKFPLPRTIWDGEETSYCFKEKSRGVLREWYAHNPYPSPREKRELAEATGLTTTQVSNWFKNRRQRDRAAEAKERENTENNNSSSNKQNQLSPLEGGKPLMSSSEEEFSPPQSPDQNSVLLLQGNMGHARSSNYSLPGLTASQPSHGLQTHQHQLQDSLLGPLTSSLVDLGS
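AlphaScreen luminescence read after one hour at 37 °C in darkness. Pin-transferred compounds met GST-Six1 and His-Eya2 protein (5X stock 250 nM/500 nM) plus glutathione donor and Ni-chelate acceptor beads (5X, 50 ug/mL).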
Starred values were filed as active, the others as inactive; ? = inconclusive; . = no result given; [ ] = dose if it differs, or a comment.

SMILES	gsp agonist	gsp antagonist	D2 potentiator	D2 ag	CtBP-E1A inh	Six1-Eya2 blk
CCOC(=O)CN1C(c2ccc(O)cc2)Nc2ccc(Br)cc2C1c1ccccc1 (stereo not drawn)	6%	-13%	-18	1.6	-16	-13
COc1ccc(S(=O)(=O)N2CCC(C(=O)N[C@@H](C)C(=O)NCc3ccncc3)CC2)cc1	12%	-10%	-5	-4.1	.	7
Cc1ccc(/C=C2\SC(=S)N(C3CCS(=O)(=O)C3)C2=O)o1 (stereo not drawn)	?	0%	-5	-2.9	-24	-27
CCNC(=O)NC(=O)COC(=O)CNC(=O)COc1ccccc1	-23%	15%	9	-1.6	-2	0
NC(=O)c1cnn2c(-c3cccc(C(F)(F)F)c3)ccnc12	16%[15.4 µM]	-2%	-8	-0.2	10	2
CC(C)CNC(=O)COC(=O)/C=C/c1ccccc1[N+](=O)[O-]	-49%[inhibitor]	-11%	3	2.4	-2	1
COc1ccc(N(C(C)C(=O)NN=C2CCCC2)S(C)(=O)=O)cc1 (stereo not drawn)	5%	-16%	-5	1.7	.	0
O=C(Nc1ccc2c(c1)OCO2)N1CCC(CO)(CC2CCCCO2)CC1 (stereo not drawn)	2%[15.4 µM]	-3%	-6	-5.0	0	1
O=c1c(Cc2ccc(Cl)cc2)c(O)ccn1Cc1ccccc1	5%	2%	-32	-3.2	3	3
CNC(=O)C1CC(=O)N(c2ccc(OCC(=O)N3CCCC3)cc2)C1 (stereo not drawn)	16%	6%	-4	-4.6	-7	-6
CC(=O)N1c2ccc(S(=O)(=O)N3CCCC3)cc2CC1C(=O)Nc1cc(C)cc(C)c1 (stereo not drawn)	27%	5%	-19	-3.5	.	-2
CCNC(=O)C(C)Sc1ccc(Cl)cc1 (stereo not drawn)	0%	2%	-8	-1.1	-2	4
Cc1ccc(S(=O)(=O)N(C)C[C@H]2OCc3cn(nn3)CCCC(=O)N([C@H](C)CO)C[C@@H]2C)cc1	-42%[inhibitor]	.	7	-2.0	7	2
COC(=O)c1cn(NC(=O)Cn2nc([N+](=O)[O-])c(Cl)c2C)c(=O)c2ccccc12	0%[15.4 µM]	-14%	-6	0.5	1	-8
COc1ccc(-c2nn(-c3ccccc3)cc2CNC[C@H]2O[C@@H](n3cnc4c(N)ncnc43)[C@H](O)[C@@H]2O)cc1	.	9%	-5	-2.0	2	1
CC1CCCC(NC(=O)/C=C/c2c(F)cccc2Cl)C1C (stereo not drawn)	-3%	-11%	-5	-2.7	8	-2
Cc1cccc(N(C)S(=O)(=O)c2c(C)[nH]c(C)c2C(=O)N2CCCC2)c1	?	15%	-5	-4.7	1	-3
CN(C)c1ccc(-c2nc3n(n2)C(c2cccnc2)C2=C(CC(C)(C)CC2=O)N3)cc1 (stereo not drawn)	-21%	-21%	-1	-3.4	0	-5
O=S1(=O)CC(N2CCN(CC3CC3)CC2)CN1Cc1ccc(F)cc1 (stereo not drawn)	.	.	-12	-5.0	4	-5
O=C1CC(N2CCN(c3ccccc3Cl)CC2)C(=O)N1c1ccc(F)cc1 (stereo not drawn)	23%	-2%	-23	1.0	6	3
CC(C)(C)c1ccc(C(=O)Nc2c3c(nn2C(C)(C)C)CS(=O)(=O)C3)cc1	-7%	-13%	-4	-3.2	-1	3
CCc1nc(N=Nc2c(O)[nH]c3ccccc23)c2c3c(sc2n1)CCC3	-18%	-10%	-3	-2.9	.	-7
CCN1CCN(CCNC(=O)c2ccc3c(c2)NC(=O)/C(=C\c2cccc(Cl)c2)S3)CC1	-4%	.	-16	-2.2	3	0
CC(=O)c1ccc2c(c1)N(Cc1ccccc1Cl)C(=O)C(C)S2 (stereo not drawn)	.	.	-5	-0.3	-23	11
CCc1cccc(C)c1NC(=O)Cn1nc(C)n2cccc2c1=O	24%	16%	-9	1.0	1	-1
CNC(=O)c1cc(Nc2nnc(-c3ccc(O)cc3)c3ccccc23)ccc1OC	-16%	-22%	5	5.4	-21	-10
Cc1ccnc(NS(=O)(=O)c2ccc(NC(=O)CN3C(=O)CCC3=O)cc2)n1	-19%	7%	-5	1.4	-10	-2
C=CCn1c(=O)c2ccccc2n2c(Sc3nnnn3-c3ccccc3)nnc12	8%	-2%	4	-1.0	-3	2
Cc1cc(C)c2c(N)c(C(=O)c3ccccc3)oc2n1	-71%[inhibitor]	9%	-5	2.6	16	11
Oc1ccccc1OCCOc1ccccc1OCCOc1ccccc1O	2%[15.4 µM]	?	-6	0.7	3	5
Brc1cccc(CNCc2ccncc2)c1	-21%	5%	-12	0.2	8	-2
Cc1cccc(NC(=O)CC2(CC(=O)O)CCCC2)c1	3%	3%	-2	1.5	-22	-13
CCN1CCN(CC(=O)Nc2ccc(S(=O)(=O)N3C(C)CCCC3C)cc2)CC1 (stereo not drawn)	-9%[15.4 µM]	17%	-5	-0.4	3	0
CN(C(=O)CSc1nnc(-c2ccccc2)n1C)C1CCS(=O)(=O)C1 (stereo not drawn)	-2%[15.4 µM]	13%	0	-1.5	-1	0
Cc1ccc(NC(=O)CSc2nc(O)c(Cc3ccccc3)c(=O)n2-c2ccccc2)cc1	13%[15.4 µM]	5%	-2	-22	1	0
CCOC(=O)CCCNC(=O)COC(=O)CCC(=O)c1ccc(F)cc1	23%	-2%	4	-2.8	7	1
CCOC(=O)c1oc2ccc(CNCCO)c(Cl)c2c1C	-5%	11%	-12	-0.5	1	3
CC1Sc2ccc(S(=O)(=O)CCC(=O)Nc3ccccc3Cl)cc2NC1=O (stereo not drawn)	28%	-3%	-2	7.8	2	3
O=C(Nc1nnc(CC2=CCCCC2)s1)c1cccs1	0%	12%	-25	-3.5	0	2
C=C(C)C1CC=C(C)/C(=N/NC(=O)c2ccc(NC(=O)CC)cc2)C1 (stereo not drawn)	2%	0%	-7	-0.1	-4	2
Cc1ccc(C2N(C)C(=O)c3ccccc3N2C)cc1 (stereo not drawn)	-2%[15.4 µM]	9%	-8	4.1	9	-7
S=c1cnc2ccccc2[nH]1	-42%	4%	-19	-1.9	3	-1
C=CCOc1c(Br)cc(/C=N/O)cc1OCC	18%	-4%	16	1.7	11	6
CC(NCC1COc2ccccc2O1)C(=O)NCc1ccccc1 (stereo not drawn)	-18%[15.4 µM]	-7%	-14	-3.9	26	18
Nc1nc(-c2cccnc2)nn1C(=O)c1ccc(F)cc1	-27%	-5%	-5	-3.5	6	-5
CC(=O)NNC(=O)C(O)(c1ccccc1)c1ccccc1	-30%[inhibitor]	1%	17	0.6	3	1
COc1ccc(-c2onc(C)c2C)cc1S(=O)(=O)NCCc1ccco1	15%	-2%	-11	6.0	-6	-7
CCCCCC(=O)Nc1ncc2c(n1)CC(c1cccs1)CC2=O (stereo not drawn)	2%	-11%	2	-2.2	.	3
COc1ccc(-c2[nH][nH]c(=O)c2NC(=O)c2ccc([N+](=O)[O-])cc2)cc1	.	.	-19	-8.8	0	3
O=C(CSc1nnc(COc2ccccc2)o1)N1CCCCC1	14%	4%	-2	-2.1	7	5
The list continues.
SMILES	gsp agonist	gsp antagonist	D2 potentiator	D2 ag	CtBP-E1A inh	Six1-Eya2 blk
Cc1ccc(S(=O)(=O)N[C@@H](CO)C(=O)N[C@@H](Cc2ccc(O)cc2)C(=O)O)cc1	10%	1%	-6	-1.7	6	-3
CCOC(=O)CSc1ncnc2c1nnn2-c1ccc(F)cc1	0%	-7%	3	0.4	-5	4
CCN1/C(=C2/OC(=S)N(C)C2=O)Sc2ccccc21	-23%[15.4 µM]	-19%	-16	-1.0	-8	19
COc1ccc(CCNC(=O)CN(c2ccccc2)S(=O)(=O)c2ccccc2)cc1	29%	.	-12	-4.0	-7	0
CCOC(=O)c1cc(NC(=O)CSCCO)ccc1Cl	-1%	11%	2	0.0	-2	-1
O=C(Nc1ccc(C(F)(F)F)cc1)c1csc(-c2ccncc2)n1	-6%[15.4 µM]	-11%	-8	0.8	-13	3
Cc1cc(C)nc(Nc2nc(-c3ccccc3)cs2)n1	-20%	-24%	6	9.5	.	-8
O=[N+]([O-])c1cccnc1N1CCN(Cc2ccc3c(c2)OCO3)CC1	3%[15.4 µM]	8%	10	44*	-24	?
COC(=O)c1cc(S(=O)(=O)N(C)Cc2ccco2)c[nH]1	-8%	5%	0	-2.4	.	-8
CCCC(C)NC(=O)CSc1nc(-c2ccccc2)cn1N (stereo not drawn)	-5%[15.4 µM]	1%	-3	0.0	-2	-2
O=C1CC(=O)N(C2CCCCC2)C(=O)N1c1ccccc1S(=O)(=O)Oc1ccccc1	.	.	-5	-4.3	3	1
CC(C)(O)C1=NOC(c2ccccc2)C1 (stereo not drawn)	19%	13%	-10	-1.7	-9	5
Cc1cc(Cl)ccc1OCC(=O)NNC(=O)c1ccc(=O)[nH]c1	4%[15.4 µM]	10%	-13	-2.0	10	6
COC(=O)c1cc(C(=O)Nc2ccc(S(=O)(=O)NC(C)(C)C)cc2)cc([N+](=O)[O-])c1	8%[15.4 µM]	?	7	4.6	6	0
COc1ccc(C)cc1S(=O)(=O)N1CCN(C/C=C/c2ccccc2)CC1	-7%	-7%	-8	-3.0	16	-21
COc1ccc(C(=O)Oc2ccc(F)cc2C(=O)/C=C/c2ccc(OC)c(OC)c2)cc1	-15%	-13%	-13	0.2	3	12
COCCNC(=S)N1CCN(C/C=C/c2ccccc2)CC1	33%	8%	14	-0.7	.	-24
Cn1cnc([N+](=O)[O-])c1Sc1ncn[nH]1	?	6%	-2	-3.2	.	-9
COc1cc2c(cc1OC)CN(c1ccc(C(F)(F)F)cn1)CC2	-9%	1%	-1	-1.1	0	0
O=C(C1CCN(S(=O)(=O)c2ccc(Br)cc2)CC1)N1CCOCC1	2%	15%	3	3.0	3	7
COc1ccc(/C=N\NC(=O)c2ccc(-c3ccccc3)cc2)cc1COC(C)=O	-15%[15.4 µM]	-10%	5	-2.6	0	-10
CCC(=O)N1CCCC(C(=O)Nc2nc3ccccc3[nH]2)CC1 (stereo not drawn)	.	.	0	-3.1	23	27

Arranged by the number under gsp agonist (lowest first): some entries from above
SMILES	gsp agonist	gsp antagonist	D2 potentiator	D2 ag	CtBP-E1A inh	Six1-Eya2 blk
COc1ccc(C(=O)Oc2ccc(F)cc2C(=O)/C=C/c2ccc(OC)c(OC)c2)cc1	-15%	-13%	-13	0.2	3	12
COc1cc2c(cc1OC)CN(c1ccc(C(F)(F)F)cn1)CC2	-9%	1%	-1	-1.1	0	0
CC(C)(O)C1=NOC(c2ccccc2)C1 (stereo not drawn)	19%	13%	-10	-1.7	-9	5

Record cards, from the list above.
COc1cc2c(cc1OC)CN(c1ccc(C(F)(F)F)cn1)CC2 as listed: gsp agonist = -9%; gsp antagonist = 1%; D2 potentiator = -1; D2 ag = -1.1; CtBP-E1A inh = 0; Six1-Eya2 blk = 0
COC(=O)c1cc(C(=O)Nc2ccc(S(=O)(=O)NC(C)(C)C)cc2)cc([N+](=O)[O-])c1 as listed: gsp agonist = 8%[15.4 µM]; gsp antagonist = ?; D2 potentiator = 7; D2 ag = 4.6; CtBP-E1A inh = 6; Six1-Eya2 blk = 0
